fixLJ activator – B. multivorans fixK reporter activation. B. multivorans fixK-promoter GFP reporter, 18 h; stronger effect = higher value. z-score (no concentration beside the values). 0.3% of 29,000 active. AID 1918990;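 active = replicate mean overnight rise in green fluorescent reporter signal, 3 or more SD over negative controls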;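 note: score is relative to vehicle wells of the plate; 300 nL library stock went into each well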
* marks the source's active call; other numbers are inactive results. Only part of the results is shown, so the mix of outcomes need not match the whole.

Sample of the layout (six entries):
SMILES	fixLJ activator
O=C(CCCn1c(=O)c2sccc2n(Cc2cccc(Cl)c2)c1=O)NCc1ccc2c(c1)OCO2	0.15
Cc1cc(-c2cc(S(=O)(=O)NCc3cc(C(C)C)on3)c(C)s2)n[nH]1	0.01
COc1cc2c(C(=O)N(C)c3cccc(C(F)(F)F)c3)cn(CC(C)C)c(=O)c2cc1OC	2.2
COc1ccc(NC(=O)[C@H]2O[C@@H]3OC(C)(C)O[C@@H]3[C@H]3OC(C)(C)O[C@H]32)c(OC)c1	-0.89
COc1ccc(CNC(=O)CCc2c(C)nc3c(c(C)nn3-c3ccccc3)c2C)cc1	-0.9
Cc1ccc(S(=O)(=O)N(CC(=O)N2CCc3ccccc3C2)c2ccc(C)c(C)c2)cc1	0.95

This part in full (from the top)
SMILES	fixLJ activator
O=C(CCCn1c(=O)c2sccc2n(Cc2cccc(Cl)c2)c1=O)NCc1ccc2c(c1)OCO2	0.15
Cc1cc(-c2cc(S(=O)(=O)NCc3cc(C(C)C)on3)c(C)s2)n[nH]1	0.01
COc1cc2c(C(=O)N(C)c3cccc(C(F)(F)F)c3)cn(CC(C)C)c(=O)c2cc1OC	2.2
COc1ccc(NC(=O)[C@H]2O[C@@H]3OC(C)(C)O[C@@H]3[C@H]3OC(C)(C)O[C@H]32)c(OC)c1	-0.89
COc1ccc(CNC(=O)CCc2c(C)nc3c(c(C)nn3-c3ccccc3)c2C)cc1	-0.9
Cc1ccc(S(=O)(=O)N(CC(=O)N2CCc3ccccc3C2)c2ccc(C)c(C)c2)cc1	0.95
Cc1cc(C)cc(NC(=O)CNS(=O)(=O)c2ccc3nc(C)sc3c2)c1	-1.4
Cc1ccc(C2(C(=O)N3CCc4c(c(C(=O)O)nn4CCO)C3)CC2)cc1	-2
CCc1nnc(NC(=O)c2nc(SCc3ccccc3F)ncc2Cl)s1	-0.11
CCCc1cc(N2CCN(c3ccc(OC)cc3)CC2)n2cnnc2n1	-0.52
Cc1cccc(-n2c(=O)c3ccccc3n(Cc3ccccc3C#N)c2=O)c1	-0.54
O=C1CCc2cc(S(=O)(=O)NC(C(=O)Nc3cccc(F)c3)c3ccccc3)ccc2N1 (stereo not drawn)	-1.3
CCCCN1C(=O)c2[nH]nc(-c3ccccc3O)c2C1c1ccc(C(C)(C)C)cc1 (stereo not drawn)	1.3
Cc1cc(C)n(CC2(CNc3nc(C)c(C)cc3C(N)=O)CC2)n1	-0.35
Cc1cc(C)c2c(NCCC3CCCCN3C(C)C)ncnc2n1 (stereo not drawn)	-0.35
CCOC(=O)N1CCc2c(sc3c2c(=O)n(Cc2ccccc2)c(=O)n3Cc2cccc(C)c2)C1	-0.3
Oc1ccc2c3c1OC1[C@@H](O)CC[C@@]4(O)[C@@H](C2)N(CC2CCC2)CC[C@]314 (stereo partly drawn)	-2
COCCCNc1nc2c(-c3cccc(Br)c3)nnn2c2ccccc12	-0.75
COc1cccc2c1cc1c(=O)n(CC(=O)NCCCN3CCN(C)CC3)nc(C)n12	-0.41
CCc1ccccc1N1CC(c2nc3ccccc3n2Cc2cccc(C)c2)CC1=O (stereo not drawn)	-1.6
CC1=C(C(=O)Nc2cccnc2)C(c2ccc(Cl)cc2)n2nc(SCc3ccccc3)nc2N1 (stereo not drawn)	-1.1
Cc1cc(CNC(=O)c2csc(C)c2-c2ccccc2)no1	-0.85
CNC(=O)CCCNC(=O)c1cccc(-c2ccc(C)cc2F)c1	-0.85
COc1cc(C(=O)Nc2ccc(OCc3cc(=O)n4cc(C)sc4n3)cc2)cc(OC)c1OC	0.92
Cc1ccc(Cn2c(CNC(=O)c3cccc(C)c3)nc3ccccc32)cc1	0.23
Cc1ccc(NCc2ccccc2-c2nnc(-c3ccccc3Cl)o2)cc1Cl	-0.63
CCOc1ccc(C(=O)NC2COCC2Cc2ccncc2)cc1Cl (stereo not drawn)	-2.1
Cc1ccc(C)c(CN2C(=O)c3ccccc3S(=O)(=O)c3ccc(C(=O)N4CCCCCC4)cc32)c1	0.21
CCc1nc(C)c(CNC(=O)CCc2nc(-c3ccco3)no2)s1	-1.8
O=C(Cn1c(=O)c2ccccc2n(CC(=O)Nc2ccc(F)cc2)c1=O)NCCc1ccccc1	-0.92
CCn1cc(C(=O)N2CCN(c3ccccc3)CC2)c(=O)c2cc(S(=O)(=O)N3CCC(C)CC3)ccc21	-1.6
Cc1ccc(-c2nc3ccc(Br)cn3c2Nc2ccc3c(c2)OCO3)o1	-0.42
CN1CCN(C(=O)Cn2ncc3c4ccccc4n(Cc4ccc(F)cc4)c3c2=O)CC1	-1.7
COc1ccc(-n2c(C)c(C(C)=O)c3cc(OC(=O)COc4ccccc4)ccc32)cc1	0.41
COc1cccc(C2CC(=O)Nc3c2c(=O)[nH]c2nc4ccccc4n32)c1 (stereo not drawn)	0.7
CCCc1cc(C(=O)NC(c2cncc(OC)c2)C2CC(O)C2)n[nH]1 (stereo not drawn)	-0.53
Cc1ccccc1C(=O)Nc1ccc2oc(-c3ccc(Cl)c(Cl)c3)nc2c1	-1.6
CC(C)Oc1ccc(C(=O)N(Cc2ccc(N(C)C)cc2)C2CCS(=O)(=O)C2)cc1 (stereo not drawn)	-1.6
COc1cccc(NS(=O)(=O)c2ccc3[nH]cc(C(=O)N4CCCCCC4)c(=O)c3c2)c1	1.1
CCc1ccc(S(=O)(=O)N(C(=O)c2ccncc2)c2ccc3oc(C)c(C(=O)OC)c3c2)cc1	-1.8
CCCc1cncnc1N1CCC2(CCC(=O)N(CCN(C)C)C2)CC1	0.46
Cc1[nH]cnc1-c1nccn1C1CCCC1OCc1ccccc1 (stereo not drawn)	0.11
COc1ccc(CCNC(=O)c2cc3c(=O)n(C)c4ccccc4c3s2)cc1OC	-0.94
O=C(O)c1ccccc1	-0.15
COc1ccc(NC(=O)Cn2c(=O)n(Cc3ccc4c(c3)OCO4)c(=O)c3ccc(C(=O)NC4CCCCC4)cc32)cc1	-1.3
CCOc1ccc(C(=O)Nc2ccc3nc4c(c(Nc5ccccc5OC)c3c2)CCCC4)cc1	-0.73
C=Cc1ccc(Cn2c(C(=O)OC)cc3sc(C)cc32)cc1	0.46
CCCCn1cc(S(=O)(=O)c2ccc(OC)cc2)c(=O)c2cc(F)c(F)cc21	-1.3
NC(=O)COc1cccc(C(=O)Nc2cc3[nH]c(=O)[nH]c3cc2N2CCCC2)c1	-0.59
CC(C)c1ccc(CN2CCCC(O)(CNCCC(N)=O)C2=O)cc1 (stereo not drawn)	0.2
Cc1nc(C2CCN(C(=O)NCCCn3ccc4ccccc43)CC2)n[nH]1	-1.8
Cc1cc(CC2CN(C(=O)c3cnn4ccn(C)c34)CC2O)on1 (stereo not drawn)	-0.6
Cc1cc(C(=O)NCCCc2csc(N)n2)c2c(C)nn(C)c2n1	0.01
COc1ccc(S(=O)(=O)c2c(C(=O)c3ccc(C)c(C)c3)cnc3ccc(F)cc23)cc1	0.6
CCc1ccc(C2CC(=O)N(c3cccc(C(F)(F)F)c3)C3=C2C(=O)OC3)cc1 (stereo not drawn)	-4.2
COc1ccc(NC(=O)CCNS(=O)(=O)c2cccc3nsnc23)cc1Cl	-0.61
CCCN(C(=O)Cn1cc(S(=O)(=O)N2CCN(c3ccccc3F)CC2)c2ccccc2c1=O)c1cccc(C)c1	0.02
Cc1c(S(=O)(=O)c2cccc(Cl)c2)nnn1-c1cccc(C(F)(F)F)c1	0.69
COc1ccc(-c2nc3c([nH]2)CN(C(=O)C(N)Cc2cnc[nH]2)CC3)cc1 (stereo not drawn)	-0.98
Cc1ccc(CNC(=O)C2CCCN(c3nc4c(C)cc(C)cc4s3)C2)cc1 (stereo not drawn)	-1.9

Continuation:
SMILES	fixLJ activator
CCN(C(=O)c1cc2c(=O)oc3ccc(C)cc3c2s1)c1ccccc1F	-0.44
CCOc1ccc(NC(=O)Cn2nc(Cc3ccncc3)c3ccccc3c2=O)cc1	-1.1
CCc1ccc2nc(N3CCC(C(=O)NCCC(C)C)CC3)sc2c1	2.3
CCOC(=O)c1ccc(NC(=O)CSc2nc(-c3cccs3)cc(C(F)(F)F)c2C#N)cc1	-5.8
Cc1ccc(-c2nc(S(=O)(=O)c3ccccc3)c(SCC(=O)NC3CCCCC3)o2)cc1	-0.69
CCOC(=O)c1ccc(NC2=CC(c3ccc(F)cc3)N(c3ccc(C(=O)OCC)cc3)C2=O)cc1 (stereo not drawn)	-1.1
Cc1ccc2nc(/C(C#N)=C/c3cccc(Br)c3)[nH]c2c1	-1.1
Cc1ccc2oc(=O)c(S(=O)(=O)c3ccc(C(C)(C)C)cc3)cc2c1	0.12
C=CCN1C[C@@]2(C(=O)O)CN(c3ncnc4[nH]ccc34)CC2C1=O (stereo partly drawn)	-1.7
Cc1ncsc1CCN(C)Cc1ccc(OCC(=O)N2CCOCC2)cc1	-1.8
COc1ccc(S(=O)(=O)N2CCC(C(=O)Nc3cc(C(F)(F)F)ccc3Cl)CC2)cc1	0.21
O=C(Nc1noc2ccccc12)c1cccc(F)c1	1.4
COCCCn1c(=N)c(S(=O)(=O)c2ccccc2)cc2c(=O)n3cccc(C)c3nc21	-0.77
CCNC(=O)Cn1nc(C)n2c(cc3c(OC)cccc32)c1=O	-1.4
O=C(Nc1cc(-c2nc3cc(Cl)ccc3o2)ccc1Cl)c1cccc2ccccc12	-1.9
CCOc1c(Cl)cc(CNc2ccc3[nH]c(=O)[nH]c3c2)cc1OC	-1.1
COc1ccc(-n2c(-c3ccc(C)cc3)cc3c2CC(C)(C)CC3=O)cc1Cl	-0.07
CCOC(=O)c1c(-c2ccc(C)cc2)csc1NC(=O)c1nc(SCC)ncc1Cl	-0.48
Cc1ncsc1CCC(=O)N(Cc1c(C)nn(C)c1C)C1CC1	0.1
O=C(O)C1CCC(C(=O)N2CCC(O)(c3ccccc3)CC2)C1 (stereo not drawn)	0.89

Given as labelled records: part of the list above
> CCOC(=O)c1ccc(NC(=O)CSc2nc(-c3cccs3)cc(C(F)(F)F)c2C#N)cc1
  fixLJ activator: -5.8
> Cc1ccc(-c2nc(S(=O)(=O)c3ccccc3)c(SCC(=O)NC3CCCCC3)o2)cc1
  fixLJ activator: -0.69
> CCOC(=O)c1ccc(NC2=CC(c3ccc(F)cc3)N(c3ccc(C(=O)OCC)cc3)C2=O)cc1 (stereo not drawn)
  fixLJ activator: -1.1
> Cc1ccc2nc(/C(C#N)=C/c3cccc(Br)c3)[nH]c2c1
  fixLJ activator: -1.1

(listing goes on)
SMILES	fixLJ activator
CCOC(=O)c1ccc(NC(=O)CCc2nc3cccnc3n2Cc2cccs2)cc1	-0.75
CCC(CO)N(Cc1cccnc1)C(=O)NCc1cccs1 (stereo not drawn)	-0.31
COCCNC(=O)c1ccc(CSc2nc3ccncc3n2Cc2ccccc2)cc1	-2.3
CCC(C(=O)N1CCN(c2ccccc2)CC1)n1nc(C)n2c(cc3sccc32)c1=O (stereo not drawn)	-0.7
COCCn1cncc1CNC(=O)C1(C)CC12CCNCC2 (stereo not drawn)	-0.83
Cc1ccc(S(=O)(=O)c2cnc(SCC(=O)Nc3ccccc3C(F)(F)F)[nH]c2=O)cc1C	-0.42
CS(=O)(=O)CCC(=O)NC1COCC1Cc1ccnc2ccccc12 (stereo not drawn)	-0.01
O=C(CCBr)N1CCN(C(=O)CCBr)CC1	-0.93
COc1ccc(-c2nnc(Nc3ccc(OC)c(C(N)=O)c3)c3ccccc23)cc1	-0.99
CC1CCC(NC(=O)C2(C)Cc3ccccc3C(=O)N2Cc2ccc(F)cc2)CC1 (stereo not drawn)	-0.52
COc1ccc(-c2nc3cc(C(C)C)ccc3o2)cc1NC(=O)COc1ccc(C)cc1C	-2
CCOc1ccc(NC(=O)c2cc3cc4cc(OC)ccc4nc3s2)cc1	-1.2
COc1ccc(Cl)cc1NC(=O)Cn1c(=O)n2nc(-c3ccccc3)nc2c2ccccc21	-0.09
CCN(CC)CCCNC(=O)CCc1c(C)nc2c(c1C)c(=O)n(C)c(=O)n2C	0.21
CC(C)OCCCNC(=O)C1CCCCC1C(=O)NC(C)(C)C (stereo not drawn)	0.57
CC(=O)N1c2ccccc2CC1C(=O)NCc1cccc(Cl)c1 (stereo not drawn)	-0.12
CC(Cc1cnccn1)n1ccnc1-c1nc2ccccc2n1C (stereo not drawn)	0.25
C[N+](C)(C)CCCCCCCCCC[N+](C)(C)C	-0.52
CCOc1ccc(CNC(=O)COc2cc(=O)n(C)c3ccccc23)cc1	-1.4
COc1cc(Cn2c(=O)sc3ccccc32)ccc1OC(C)C	-2.6
O=C(NC1CCOCC1OCc1cscn1)c1ccccn1 (stereo not drawn)	-0.18
CC1(C)S[C@@H]2[C@H](NC(=O)[C@H](NC(=O)N3CCNC3=O)c3ccccc3)C(=O)N2C1C(=O)O (stereo partly drawn)	-8.3
Cc1ccccc1-c1cc(O)c2c(c1)CN(C(=O)CCc1cnc[nH]1)CCO2	0.23
CSc1ccc(CCNC(=O)c2csc3c2CCCCC3)cc1	-1.2
Cc1cc(N2CCN(c3ccc(F)cc3)CC2)n2cnnc2n1	-0.11
COc1ccc(Br)cc1CNC(=O)C(C)n1nc(C)n2c(cc3occc32)c1=O (stereo not drawn)	-1.2
Cc1ccc(-c2noc(COc3ccc(Br)c(C)c3)n2)cc1	0.57
O=C(c1ccc2c(Cl)c3c(nc2c1)CCCC3)N1CCN(c2ccccc2)CC1	0.22
Cc1ccc2oc(C(=O)Nc3ccc(S(=O)(=O)Nc4ncccn4)cc3)cc(=O)c2c1	-1.1
O=C(Nc1ccc(Cl)c(C(F)(F)F)c1)c1cc2nc(-c3ccc4c(c3)OCO4)cc(C(F)(F)F)n2n1	-0.5
CSc1ccccc1NC(=O)CCS(=O)(=O)c1nc(-c2ccc3c(c2)OCO3)cc(C(F)(F)F)n1	0.42
O=C(Cc1cc2c(cc1Cl)OCCO2)NC1COCC1O (stereo not drawn)	0.23
COC(=O)c1cc2oc3ccccc3c2n1CC(=O)Nc1ccc(C)cc1Cl	-0.5
COc1ccc(-c2cc3nc(-c4ccc(Br)cc4)cc(C(F)(F)F)n3n2)cc1	-3.3

Another view of some results above.
| SMILES | fixLJ activator |
| --- | --- |
| Cc1ccccc1-c1cc(O)c2c(c1)CN(C(=O)CCc1cnc[nH]1)CCO2 | 0.23 |
| CSc1ccc(CCNC(=O)c2csc3c2CCCCC3)cc1 | -1.2 |
| O=C(Nc1ccc(Cl)c(C(F)(F)F)c1)c1cc2nc(-c3ccc4c(c3)OCO4)cc(C(F)(F)F)n2n1 | -0.5 |

Screens deposited in PubChem by ICCB-Longwood Screening Facility, Harvard Medical School.
